Screening results from PubChem.
Vaccinia mCherry: qHTS for Stage-Specific Inhibitors of Vaccinia Orthopoxvirus: mCherry Reporter Primary qHTS; AID 720579, 2013; 0.63% of 310,000 active; Potency, µM (titrated, usually from 36.5 µM), without a hit: at the highest dose activity change, negative = inhibition, most hits filed as inhibitors; Vaccinia virus mCherry reporter infection, fluorescence; about a quarter of the inactives have no number; active = well fitted inhibition curve with a large enough effect; inconclusive = small, poorly fitted or top-dose-only effect; inactive = no such curve, though single readings can be large or run the other way; tested in A549 cells; note: nearly all actives have a fitted effect of over 35% in size; inactives centre near -10
VACV Venus inh: qHTS for Stage-Specific Inhibitors of Vaccinia Orthopoxvirus: Venus Reporter Primary qHTS; AID 720580, 2013; 0.46% of 330,000 active; Potency, µM (top dose mostly 36.5 µM), for the others: at the top dose activity change, negative = inhibition, most hits filed as inhibitors; Vaccinia virus Venus reporter expression, fluorescence; active means well fitted inhibition curve with a large enough effect; inconclusive means small, poorly fitted or top-dose-only effect; inactive means no such curve, though single readings can be large or run the other way; tested in A549 cells; note: nearly all actives have a fitted effect of over 30% in size; inactives centre near -10
An asterisk follows results filed as active; i = inactive; ? = inconclusive; / = not tested or not shown; & = joins results of further samples; [ ] = dose if it differs, or a comment. % is set by controls: 0 for no effect and ±100 for the full control effect; potency is the fitted concentration of half-maximal effect.

molecule	Vaccinia mCherry	VACV Venus inh
CCOc1ccc2[nH]cc(C(=O)N3CCN(C4CCCCC4)CC3)c(=O)c2c1	i	-12%
Cc1ccc(C(=O)NC(=S)Nc2ccc(N3CCOCC3)cc2)cc1C	-24%	-14%
Cc1occc1C(=O)Nc1nnc(-c2ccncc2)s1	-23%	-21%
O=C(COc1ccc(C2SCCS2)cc1)NNC(=O)C(Cl)Cl	i[7.34 µM]	-15%[7.34 µM]
CC1CCCC(C)N1C(=O)c1cc(-c2ccc3c(c2)OCO3)on1 (configuration not stated)	-21%	-8%
C[C@@H]1CN([C@@H](C)CO)C(=O)c2cc(Br)cnc2O[C@H]1CN(C)Cc1cccnc1	-3%	-9%
O=C(NCC(=O)N1CCN(C(c2ccccc2)c2ccccc2)CC1)c1ccc(Br)o1	i	-23%
COc1ccc(C(C)=O)cc1CN1C(=O)C(C)ON=C1c1ccccn1 (configuration not stated)	i	8%
C/C(=N\NC(=O)CC1(C)OCCO1)c1cccs1	-6%	-16%
COc1ccc(CC(N)c2csc(NC(=O)c3cccs3)n2)cc1 (configuration not stated)	18%	3%
CCOc1cc(Cl)c(S(=O)(=O)NCCCN2CCOCC2)cc1Cl	-11%	-3%
CCNC(=O)CSc1nnc(-c2cc(-c3ccc(Cl)cc3)nc3ccccc23)o1	-8%	-4%
O=C(N/N=C(/CC(=O)c1cccs1)C(F)(F)F)c1ccc(O)cc1	-9%	-24%
COc1ccccc1-n1cnnc1SCC(=O)Nc1cccnc1Cl	i	-11%
O=C(NC(=S)Nc1ccc2oc(-c3ccncc3)nc2c1)c1ccccc1F	-8%	0%
Cc1nn(-c2ccccc2)c(Cl)c1/C=N/N1CCN(c2ccccn2)CC1	i	-12%
Cc1cc(=O)[nH]c(SCC(=O)NCC2CCCO2)n1 (configuration not stated)	-10%	-5%
O=C1/C(=C/c2cccnc2)SC(=S)N1NS(=O)(=O)c1ccccc1	5%	9%
O=C(CN1CCN(S(=O)(=O)c2ccc(Br)s2)CC1)N1CCCCC1	-26%	-14%
C1CC(CN2CCOCC2)CN(c2nc3nonc3nc2N2CCSCC2)C1 (configuration not stated)	i	-17%

Following part.
molecule	Vaccinia mCherry	VACV Venus inh
S=c1[nH]nc(Cc2ccccc2)n1-c1ccc(Cl)cc1	-9%	11%
Cc1cc(C)c(NC(=O)COc2nc3ccccc3nc2C)c(C)c1	-13%	-6%
CCOc1ccc(OCC(=O)Nc2ccccc2N2CCCC2)cc1	i	-24%
COCCN(CCOC)C(=O)C1CCN(c2ccc(S(=O)(=O)N3CCOCC3)cc2[N+](=O)[O-])CC1	-12%	-5%
Cc1cccc(C(C)C)c1NC(=O)c1ccc(COc2ccc3c(C)cc(=O)oc3c2)cc1	i	-1%
O=C(Cn1cnc([N+](=O)[O-])c1)NCc1ccc(F)cc1	/	-4%
Cc1onc(-c2c(Cl)cccc2Cl)c1/C(N)=N/OC(=O)N(C)C	10%	0%
Cc1cc(NC(=O)CN2CCc3ccccc3C2)nc2c1c(=O)oc1ccccc12	i	-8%
S=C(Nc1ccccc1Cl)N(CCN1CCCCC1)Cc1ccco1	-7%	-6%
CCOC(=O)Cn1c(=O)c2c(nc(Br)n2Cc2ccc(Cl)cc2)n(C)c1=O	-3%	-17%
CCN(CC(=O)NCc1ccco1)S(=O)(=O)c1ccc(F)cc1	4%	-10%
CC(C)[C@H](NC(=O)c1cccc(CN(Cc2ccccc2)C(=O)/C=C/c2ccccc2)c1)C(=O)O	-19%	-5%
O=C(NCc1ccccc1)C(=O)Nc1nccs1	-2%	-16%
CCN(CC(=O)NCc1cccs1)C(=O)c1cccc(S(=O)(=O)Nc2ccc(OC)cc2)c1	-19%	-15%
CCOc1ccc(CCNC(=O)COC(=O)CCc2cc(OC)c(OC)c(OC)c2)cc1OCC	i	-8%
CC(C)(C)n1nnnc1C(c1ccccc1)N1CCC2(CC1)C(=O)NCN2c1ccccc1 (configuration not stated)	4%	-1%
COc1ccccc1NC(=O)c1ccc2nc(C)sc2c1	-12%	-12%
CSCCC(NC(=O)c1cccc(S(=O)(=O)N2CCOCC2)c1)c1nc2ccccc2[nH]1 (configuration not stated)	-11%	-9%
COc1ccc(CCNc2nccn(-c3ccc(C)c(C)c3)c2=O)cc1OC	?	-21%
O=C(O)c1ccc(/C=C/c2nc3ccccc3c(=O)n2-c2ccc(Br)cc2)cc1	-2%	-9%

Record cards (already shown). Order of values: Vaccinia mCherry | VACV Venus inh
Profile of Cc1cc(NC(=O)CN2CCc3ccccc3C2)nc2c1c(=O)oc1ccccc12 : i | -8%
Profile of O=C(NC(=S)Nc1ccc2oc(-c3ccncc3)nc2c1)c1ccccc1F : -8% | 0%
Profile of CCOc1ccc(OCC(=O)Nc2ccccc2N2CCCC2)cc1 : i | -24%
Profile of COc1ccc(CCNc2nccn(-c3ccc(C)c(C)c3)c2=O)cc1OC : ? | -21%
Profile of O=C(N/N=C(/CC(=O)c1cccs1)C(F)(F)F)c1ccc(O)cc1 : -9% | -24%

Carrying on.
molecule	Vaccinia mCherry	VACV Venus inh
COc1cc(C2C3=C(CC(c4ccco4)CC3=O)Nc3ccccc3N2C(C)=O)cc(OC)c1OC (configuration not stated)	/	-1%
COc1ccc(CCNc2ncnc3c2cnn3-c2cccc(Cl)c2)cc1	-7%	-1%
CN1C(=O)C2(c3ccccc31)N(C)CC(c1ccccc1)C21SC(=S)N(Cc2ccco2)C1=O (configuration not stated)	i	-7%
COc1ccccc1C1C=C(c2ccc(Cl)cc2)Nc2nc(-c3ccc(Cl)cc3)nn21 (configuration not stated)	-3%[7.34 µM]	-8%[7.34 µM]
O=C(COC(=O)c1cc(-c2cccs2)nn1-c1ccccc1)Nc1cc([N+](=O)[O-])ccc1Cl	-1%	3%
Cc1cc(C)c2c(-n3cccc3)c(C(=O)NNS(=O)(=O)c3ccc(Cl)cc3)sc2n1	-17%	-16%
COc1ccc(CCNC(=O)c2ccc3c(c2)N(Cc2c(F)cccc2Cl)C(=O)CS3)cc1OC	-6%	-26%
CC(C)CC1N=C2c3ccccc3N=C(SCC(=O)NCCc3ccc(Cl)cc3)N2C1=O (configuration not stated)	-7%	1%
O=C1NC[C@H](CCCCN2C[C@H](Cc3ccccc3)N(CCC3CCCCC3)C(=O)C2=O)N(CC2CCCCC2)C1=O	-29%	?
COc1cc2nc(NC(=O)c3ccccc3)[nH]c(=O)c2cc1OC	i	-19%
CC1(C(=O)NS(=O)(=O)Cc2ccccc2)CCN1C(=O)Cc1ccccc1 (configuration not stated)	26%	-10%
O=C(NCc1ccc(F)cc1)c1ccc(CS(=O)(=O)c2ccc(Cl)cc2)o1	i	-22%
Cc1ccc(NC(=O)Cn2cc(C(=O)c3ccco3)c3ccccc32)cc1	-12%[7.34 µM]	-13%[7.34 µM]
COc1ccc(NC(=O)CSc2nc3c(c(=O)n(C)c(=O)n3C)n2C)c(OC)c1	-13%	-16%
O=C1[C@@H]2CSCN2C(=O)CN1Cc1ccc(F)cc1	-2%	-9%
Cc1nnsc1C(=O)Nc1ccc(S(=O)(=O)N2CCC(C)CC2)cc1	-1%	-28%
COC(=O)N1C(=O)[C@@](c2ccccc2)(C(C)C)N1C(=O)OC	?	?
Cc1cc2nc(-c3ccc[nH]c3=O)n(Cc3ccccc3F)c2cc1C	-1%	4%
Cc1ccc(S(=O)(=O)N2CCN(C(=O)COC(=O)c3ccc(C(C)(C)C)cc3)CC2)c(C)c1	-12%	-26%
COc1ccc(NC(=O)COC(=O)/C=C/c2ccc(OC)c(S(=O)(=O)N3CCOCC3)c2)cc1	-13%	-18%

The listing continues:
molecule	Vaccinia mCherry	VACV Venus inh
C=CCN(C(=O)c1csnn1)C(C(=O)NCc1ccc(F)cc1)c1ccc(F)cc1 (configuration not stated)	-5%	8%
O=C(CCNC(=O)c1ccco1)Nc1ccc(F)c(Cl)c1	6%	10%
Clc1ccccc1CSc1nnc(C2CCNCC2)o1	-14%	-12%
CCn1nnnc1SCC(=O)Nc1cc(C)on1	-13%	-10%
CCn1ncc([C@@H]2C[C@H]3CN(Cc4ccccc4C)C(=O)[C@]34CCCN24)c1C	i	-4%
CCc1ccc(Oc2ncnc(N)c2[N+](=O)[O-])cc1	-12%	-15%
c1ccc(CCCc2nc(-c3ccccn3)no2)cc1	1%	-5%
COc1ccc(-c2cnc3c(NC=O)cc(-c4ccc(S(C)(=O)=O)cc4)cn23)cc1OC	?	?
CCOc1ccc(NC(C(=O)Nc2cccc(C(C)=O)c2)c2ccccc2)cc1 (configuration not stated)	i	0%
COc1cc(C(=O)NCCC(C)C)c([N+](=O)[O-])cc1OC	-1%	-18%
Cc1cccc(N2CCN(C(=O)C3CCN(c4ncnc5c4nc4n5CCCCC4)CC3)CC2C)c1 (configuration not stated)	?	?
O=C(CN1C(=O)NC(Cc2ccccc2)C1=O)Nc1ccccc1OC(F)F (configuration not stated)	i	-12%
COc1ccc(OC)c(CCNC(=O)c2cnn(-c3ccccc3)c2-n2cccc2)c1	-8%	-14%
Cc1cccc(OCC(=O)Nc2nc3c(s2)CC(C(C)(C)C)CC3)c1C (configuration not stated)	i	-5%
Cc1cccc(S(=O)(=O)N(C)C[C@@H]2OCc3cnnn3CCCC(=O)N([C@H](C)CO)C[C@@H]2C)c1	-1%	-17%
COc1cccc(NC(=O)NNC(=O)CN2C(=O)COc3ccccc32)c1	?	-17%
CCOC(=O)C(=NCC1CCCO1)NNc1ccccc1Cl (configuration not stated)	?	-1%
O=C(CCC(=O)Nc1ccc(Oc2ccccc2)cc1)NCCO	/	-14%
COc1ccc(Cn2cc(C(=O)c3ccc(C)c(C)c3)c(=O)c3ccccc32)cc1	-17%	-17%
O=C1CC[C@H](O)CCN1[C@H](CSc1ccccc1)Cc1ccccc1	-20%&-3%	-13%&-10%

Remaining list, next part.
Each structure is followed by: Vaccinia mCherry	VACV Venus inh
Oc1ccc(/C=N/N2CCOCC2)c(O)c1O
 : -9%	-3%
Cc1cc(C)c(N2C(=O)CCCC2=O)c(Cl)c1
 : -16%	5%
CCN1CCN(C(=S)NC(=O)c2cccs2)CC1
 : -9%	-11%
Cc1cccc(NC(=O)CSc2nnc(N)s2)c1
 : i	-5%
O=C(Nc1nnc(N2CCCCCC2)s1)Nc1cc(F)ccc1F
 : -24%	-22%
CCCCCC1(C)NC(=S)N(c2ccccc2)N1 (configuration not stated)
 : -2%	-5%
COc1ccc(CN(C)C(=O)COC(=O)c2ccc3c(c2)OCO3)cc1OC
 : i	-13%
CCOC(=O)C1=C(C)N=c2s/c(=C/c3cccc([N+](=O)[O-])c3O)c(=O)n2C1c1ccc(OC)cc1OC (configuration not stated)
 : i	34%[activator]
Cc1ccc(S(=O)(=O)N2CCCCC2CCNC(=O)C(=O)NCc2cccnc2)cc1 (configuration not stated)
 : -12%	?
COc1ccc(C(C)=O)cc1
 : -16%	-6%

Next records
Each structure is followed by: Vaccinia mCherry	VACV Venus inh
Cc1cc(-c2ccccc2)nc2cc(C(=O)NCCCn3ccnc3)nn12
 : -1%	-15%
CC1(C)CC2CC(C)(CN2Cc2c(O)ccc3ccccc23)C1 (configuration not stated)
 : -19%	-19%
Cn1cnc([N+](=O)[O-])c1S(=O)(=O)Oc1ccccc1
 : -14%	-7%
N#CCc1nc2c3c4c(sc3ncn2n1)CCCC4
 : -2%	-15%
COc1cc(/C=N\Nc2nc3ccccc3[nH]2)cc(OC)c1OC
 : -5%	-27%
CCOC(=O)C1C2C=CC(CC2)N1c1ccccc1 (configuration not stated)
 : -6%	0%
O=C(CSc1nc(-c2ccccc2)cc(C(F)(F)F)n1)c1cccc([N+](=O)[O-])c1
 : -16%	-8%
CCN1CCN(CCCNC(=O)C2CCN(c3nnc(-n4c(C)ccc4C)s3)CC2)CC1
 : -6%	1%
CC(C)(C)c1csc(NC2=NS(=O)(=O)c3ccccc32)n1
 : i	-4%
Cc1nnn(-c2nonc2N)c1C(=O)NNC(=O)c1ccc(Cl)c(Cl)c1
 : i	-20%

Going on with the list:
Each structure is followed by: Vaccinia mCherry	VACV Venus inh
O=C(CNC(=O)c1cccs1)OCC(=O)c1ccc([N+](=O)[O-])cc1
 : -6%	-4%
COc1ccc(C(C[N+](=O)[O-])c2c(-c3ccccc3)cc3ccccn23)cc1OC (configuration not stated)
 : -18%	-6%
Fc1cccc(CNc2ncnc3cc(Cl)ccc23)c1F
 : -13%	-28%
N/C(Cc1ccc([N+](=O)[O-])cc1)=N\OC(=O)Cc1ccccc1
 : i	-8%
CC1=CC(=O)[C@H]2C(C)(C)CCC[C@]2(C)[C@@]1(O)CO
 : -6%	-6%
Cc1cc(C)c2nc(-c3cccc(Cl)c3)c(C)c(C(=O)N3CCOCC3)c2c1
 : i	-13%
CCC(C)c1nc2c(c(N3CCC3=O)c1-c1ccccc1)CCCC2 (configuration not stated)
 : 1%	-11%
Cc1ccc(NC(=O)NCc2nc3ccccc3n2C)cc1
 : 1%	12%
COC(=O)C1=NN[C@H](C(=O)OC(C)(C)C)[C@H]1c1ccccc1
 : -2%	-14%
O=C(Nc1cccc2ccccc12)c1ccc2sc([C@@H]3O[C@H](CO)[C@@H](O)[C@H]3O)nc2c1
 : 2%	-6%

Going on with the list:
Each structure is followed by: Vaccinia mCherry	VACV Venus inh
COc1ccc(N2CC(C(=O)NCCc3ccc(Cl)cc3)CC2=O)cc1 (configuration not stated)
 : -8%	2%
FC(F)(F)c1cc(N2CCOCC2)nc(-c2ccccc2)n1
 : -15%	-2%
Clc1ss/c(=N\c2ccccn2)c1Cl
 : /	-16%
COc1ccccc1CNC(=O)c1cnccn1
 : -8%	2%
